gsp agonist: activates gsp, the McCune-Albright syndrome mutation; 0.13% of 340,000 active; Potency, µM (highest dose often 76.9 µM), inactives show top-dose activation (cAMP increase), hits mostly activators; gsp mutant cells, cAMP HTRF, 30 min; control for the full effect not named in the record; active = well fitted activation curve with a large enough effect; inconclusive = small, poorly fitted or top-dose-only effect, or another doubt; inactive = no such curve, though single readings can be large or run the other way; cell line not stated here;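 also: phosphodiesterase inhibitor Ro 20-1724 added with compounds to block cAMP breakdown; potency is read from the fitted curve at half-maximal effect; nearly all actives have a fitted effect of over 60% in size; about a fifth of the inactives were tested at one dose only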
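Cells stably selected in G418 were plated at 2000/well, grown 16-24 hr, then given compounds in DMSO with the PDE inhibitor […] (300 uM solution added) for 30 min at 37C; cAMP was read by HTRF.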
Menin-MLL FL inh: displaces fluorescein MLL peptide from human menin. FP activity change, % at 61.4 µM. 290,000 tested, under 10 active. Fluorescence polarization, fluorescein-MLL peptide displacement from menin; inconclusive = falling polarisation curve, or a change in total fluorescence; inactive = total fluorescence flat and polarisation flat or rising; no compound was filed as active; the % refers to the polarisation; negative = inhibition;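 also: % of control where 0% means no effect; inhibitors lower the polarisation; unlabelled MLL peptide was the positive control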
D2 potentiator: positive allosteric modulators of human D2 dopamine receptor | P14416 | DiscoveRx D2 beta-arrestin cells, luminescence, 90 min; 100% = 57 uM dopamine signal | potentiation, % (test concentration not listed) | 0.23% of 360,000 active | AID 624464; active = potentiation of 50% or more; inconclusive = 30% to 50%; inactive = 30% or less;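 also: compound concentration not given in the record; tested on top of an EC20 dose of dopamine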
Target sequence (P14416 whole entry, looked up): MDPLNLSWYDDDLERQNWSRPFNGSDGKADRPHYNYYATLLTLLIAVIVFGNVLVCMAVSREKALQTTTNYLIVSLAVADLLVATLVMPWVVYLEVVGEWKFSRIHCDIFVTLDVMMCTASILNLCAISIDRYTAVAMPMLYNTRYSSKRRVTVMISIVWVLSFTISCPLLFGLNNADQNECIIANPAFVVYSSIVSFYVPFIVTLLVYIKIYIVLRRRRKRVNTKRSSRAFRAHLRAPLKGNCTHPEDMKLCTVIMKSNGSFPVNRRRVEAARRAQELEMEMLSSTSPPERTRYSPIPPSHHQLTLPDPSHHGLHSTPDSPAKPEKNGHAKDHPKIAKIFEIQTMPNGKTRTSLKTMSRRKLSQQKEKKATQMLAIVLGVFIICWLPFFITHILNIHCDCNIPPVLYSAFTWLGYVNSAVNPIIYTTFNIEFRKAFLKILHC
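PathHunter D2 cells, attached overnight at 37 deg C, received compound in DMSO plus dopamine at EC20 (50 nM final) for 90 min at 37 deg C. Beta-arrestin recruitment was read as luminescence after 1 h with detection reagent at ambient temperature.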
gsp antagonist: antagonists of gsp mutant (McCune-Albright syndrome); 0.4% of 340,000 active; gsp-mutant cells, cAMP HTRF, 30 min; control for the full effect not named in the record; Potency, µM (top dose mostly 76.9 µM), inactives show at the top dose activity change, negative = inhibition, hits mostly inhibitors; AID 624288; active = falling curve of any shape with a large fitted effect; inconclusive = falling curve, mostly with a smaller effect; inactive = flat or rising curve; cell line not stated here;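 also: intracellular cAMP measured with PDE inhibitor Ro 20-1724 present during compound exposure; potency is read from the fitted curve at half-maximal effect; % is scaled to controls: 0 for no effect and ±100 for the full control effect; nearly all actives have a fitted effect of over 65% in size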
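HTRF cAMP read-out (cAMP-d2 plus anti-cAMP antibody-K in lysis buffer, 30 min RT). Before lysis, cells are exposed to compounds with […] for 30 min at 37C in DPBS containing Ca/Mg, BSA and Tween 20.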
TRPV1 PAM: potentiators of human vanilloid receptor 1 (TRPV1); Q8NER1; TRPV1-expressing cells, Fluo-8 calcium influx, capsaicin EC20 potentiation; host cell line not named in the record; control for the full effect not named in the record; potentiation, % at 8.33 µM; 0.02% of 320,000 active; AID 540277; active means potentiation above 80%; inconclusive means 30% to 80%; inactive means below 30%; also: 0% is about no effect
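Cells expressing TRPV1 were dye-loaded with Fluo-8 and read kinetically: 10 s baseline, 3 min after compound (agonist portion), then 2 min after EC20 capsaicin (allosteric enhancer portion). Calcium-bound dye fluorescence at 480/520 nm.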
ClpP mod: qHTS Assay for Activators of ClpP. Potency, µM (doses to about 57.5 µM), without a hit: at the top dose activity change, negative = active. 1.9% of 340,000 active. ATP-dependent Clp protease proteolytic subunit (Bacillus subtilis (strain 168)), P80244. purified B. subtilis ClpP, FRET peptide cleavage, 20 min; active = well fitted falling curve with a large enough effect; inconclusive = small, poorly fitted or top-dose-only effect; inactive = no such curve, though single readings can be large or run the other way; also: potency is read from the fitted curve at half-maximal effect; the source files actives as falling curves though it sought activators and does not explain the sign; nearly all actives have a fitted effect of over 65% in size; many hits overshoot -100%
Target sequence (P80244 whole entry, looked up): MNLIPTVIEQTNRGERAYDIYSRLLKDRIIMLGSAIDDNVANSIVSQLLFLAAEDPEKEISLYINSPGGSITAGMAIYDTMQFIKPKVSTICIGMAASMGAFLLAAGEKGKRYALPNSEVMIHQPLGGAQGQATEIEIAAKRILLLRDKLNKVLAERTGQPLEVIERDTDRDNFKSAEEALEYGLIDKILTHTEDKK
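FRET quenching reversal measured ClpP activation: 10 microg/mL B. subtilis ClpP at pH 8 with the FRET-FV decapeptide, read at 430 nm after 320 nm excitation. The 20-min minus 0-min signal was scaled between DMSO/no-enzyme wells and ADEP (5.8 microM final).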
Sfp inh: blocks B. subtilis Sfp PPTase activity. Q9F4F7. Potency, µM, for inactives: max response, negative = inhibition, actives largely listed as inhibitors. AID 1490. Biochemical Sfp PPTase activity, qHTS. 3.5% of 310,000 active; active = well fitted inhibition curve with a large enough effect; inconclusive = small, poorly fitted or top-dose-only effect, or another doubt; inactive = no such curve, though single readings can be large or run the other way;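 also: the enzyme is Sfp with the accession as filed and its product quenches rhodamine fluorescence; potency is read from the fitted curve at half-maximal effect; 0% = enzyme reaction without inhibitor and -100% = no enzyme wells; top concentration of the series not given in the record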
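Sfp 15 nM + cpd, 15 min RT; start w/ rhodamine-CoA 5 uM, BHQ-2-YbbR 12.5 uM (final); 50 mM Hepes pH 7.6, 10 mM MgCl2, 0.01% NP-40, 0.01% BSA; read 525/598 nm at 0 and 30 min.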
* = called active by the depositor; ? = inconclusive; · = not tested or not shown; & = joins results of further samples; [ ] = remark or other dose.

SMILES	gsp agonist	Menin-MLL FL inh	D2 potentiator	gsp antagonist	TRPV1 PAM	ClpP mod	Sfp inh
CCOC(=O)CN1C(=O)N[C@@H](c2ccccc2)C(C(C)=O)=C1C	·	-1.7&0.8	-6	1%	4	-0.3%	18%&-3%
O=C(Cn1[nH]c(=O)c2ccccc2c1=O)OCC(=O)c1ccccc1Cl	-3%[15.4 µM]	·	-33	1%	4	-2.4%	·
CC(C)(C)c1csc(SCC(=O)Nc2ccc(Cl)cn2)n1	26%	3.2	9	-20%	-4	-0.6%	3%
CC(NC(=O)C1(S(=O)(=O)c2ccc(Cl)cc2)CC1)c1ccccc1 (stereo not given)	0%	4.0	-13	-2%	8	-3.7%	13%
Cc1ccn2c(NC3CCCC3)c(-c3ccncc3)nc2c1	?	1.4	9	?	-10	-3.7%	-6%
O=C(NC1CCN(Cc2ccccc2)CC1)c1ccc(Cl)cc1Cl	-28%	2.9	-86	6%	4	-2.2%	-2%
COc1ccc(NC(=O)CN(C)S(=O)(=O)c2ccc3c(c2)CC(C)N3C(C)=O)cc1OC (stereo not given)	-19%	·	-2	-5%	14	-0.3%	7%
CC(=O)c1ccccc1OCCOCCOc1ccccc1C(C)=O	2%[15.4 µM]	·	2	-8%	0	-1.9%	0%
CCCC(=O)N(Cc1cccnc1)c1nc2c(OC)ccc(Cl)c2s1	8%	·	-4	6%	22	-0.7%	-13%
O=C(Cc1ccccc1)Nc1ccc2[nH]ncc2c1	2%	0.1	-3	10%	15	-1.4%	6%
CCOc1ccc(CCNC(=O)/C=C/c2ccco2)cc1OCC	10%	·	-21	-8%	6	-0.2%	-29%
CN(Cc1cc(=O)n2ccsc2n1)C1CCCCC1	26%	1.9	4	-10%	-4	?	-5%
CCCCOc1ccc(N2C(=O)CC(N(CCc3ccccc3)C(=O)/C=C/C(=O)O)C2=O)cc1 (stereo not given)	15%	1.6	-13	7%	-1	0.0%	5%
COc1ccc(N(CC(=O)N2CC=C(c3ccccc3)CC2)S(=O)(=O)c2c(C)noc2C)cc1	-43%[inhibitor]	-1.1	0	-14%	·	-2.9%	14%
Cc1cc(Cl)cc2c1NC(=O)[C@]21[C@@H]2C(=O)N(Cc3ccccc3)C(=O)[C@@H]2[C@@H]2CCCN21	-6%	13&10	5	-17%	18&0	6.3%	-4%&11%
O=C(CCCCCN1C(=O)c2ccccc2C1=O)NCc1ccco1	-21%	0.2	2	1%	23	18µM*	7%
COc1ccc(NS(=O)(=O)c2c(C(=O)N3CCCCCC3)c(C)n(C)c2C)cc1OC	42%	1.5	1	8%	11	-0.3%	7%
COc1cc(C2C3=C(CC(C)(C)CC3=O)Nc3c2c(=O)[nH]c(=O)n3Cc2ccccc2)ccc1O (stereo not given)	-6%[15.4 µM]	?	11	10%	9	-3.4%	-22%
COc1cc(/C=C2/C(=O)NN(c3cccc(F)c3)C2=O)ccc1OC(=O)c1ccco1	-35%[inhibitor]	1.9	-21	-5%	25	1.2%	56µM*
COc1ccc(C(=O)c2c(C(F)(F)F)oc3c2C(=O)c2ccccc2C3=O)cc1	18%	8.5	23	5%	-6	3.2µM*	-1%
COC(=O)c1ccc(C(=O)N(C)C2CCCN(Cc3ccccc3F)C2)nc1 (stereo not given)	7%	1.2	-1	3%	-5	1.0%	11%
Cc1ccc(-c2nc(CNC(=O)c3cc(C)on3)cs2)cc1	3%	-4.3	-11	-14%	6	-2.1%	0%
CC(O)c1nc2ccccc2n1CCCCOc1ccccc1 (stereo not given)	-13%	-5.9	2	10%	-11	·	4%
CCN1CCCC1CNC(=O)Cn1cccc1C(=O)c1ccccc1 (stereo not given)	-9%	-1.8	-32	12%	-2	1.2%	-2%
CC1=CC(C)C2(CO)COC(c3cccnc3)C1C2C (stereo not given)	-41%[inhibitor]	5.3	-6	4%	0	2.6%	10%
CCC(C)Oc1ccccc1C1CC(=O)NC2=C1C(=O)CCC2 (stereo not given)	15%	-11	-9	11%	11	1.1%	8%
O=C(NCCC1=CCCCC1)C1CCCN(S(=O)(=O)c2cnc[nH]2)C1 (stereo not given)	4%	-3.0	-8	6%	3	-0.5%	-7%
O=C(Cn1cnc2c(nnn2Cc2ccc(Cl)cc2)c1=O)N1CCN(c2ccccc2)CC1	-33%[inhibitor]	-0.7	-4	-10%	1	0.7%	-7%
O=C(O)CC12CC3CC(C1)CC(n1ncc(NCc4ccc5c(c4)OCO5)c(Cl)c1=O)(C3)C2	·	-20	·	·	9	·	26%
O=c1cc(-c2ccccc2)nc2nc[nH]n12	17%	2.4	-11	-3%	2	-10%	18%
CCc1nnc(NC(=O)c2cc(OC)c(OC)cc2[N+](=O)[O-])s1	5%[15.4 µM]	0.4	-14	0%	5	-8.7%	9%
Cc1cc(C)n2nc(SCC(=O)Nc3ccccc3)nc2n1	19%	-0.9	2	-2%	-1	-3.5%&-0.8%	8%
CC(=O)c1ccc(NC(=O)C(C)O/N=C(\N)c2ccccc2)cc1 (stereo not given)	20%	·	-2	8%	·	-3.1%	·
N=c1c2c(ncn1CCCO)Oc1cc(O)ccc1C2c1ccccc1 (stereo not given)	?	9.2	-2	-3%	10	-0.6%	13%
COc1ccccc1CNC(=O)c1cc(-c2ccccc2)n(Cc2cc(C)no2)n1	5%	·	-11	-18%	?	-2.1%	·
Cc1c(NS(=O)(=O)c2cccc([N+](=O)[O-])c2)c(=O)n(-c2ccccc2)n1C	4%[15.4 µM]	3.3	-6	3%	-12	-3.4%	3%
COC(=O)C(Cc1ccc(OC(=O)c2ccc(C(F)(F)F)cc2)cc1)N1Cc2ccccc2C1=O (stereo not given)	5%	0.3	-17	2%	2	-1.9%	15%
CCOC(=O)C1CCCN(CC(=O)Nc2c(C(=O)OC)[nH]c3ccc(C)cc23)C1 (stereo not given)	-22%	4.3	-19	-26%	-7	32µM*	6%
O=C(CCN1CCCC1)c1cccs1	-1%	-17	-7	0%	-4	·	-21%
COc1ccc(CNc2ccc(C)cc2)cc1Br	16%	-0.7	8	-15%	-5	0.3%	-14%

Reprinted from the part before: two entries, followed by the next part.
SMILES	gsp agonist	Menin-MLL FL inh	D2 potentiator	gsp antagonist	TRPV1 PAM	ClpP mod	Sfp inh
O=C(CCN1CCCC1)c1cccs1	-1%	-17	-7	0%	-4	·	-21%
COc1ccc(CNc2ccc(C)cc2)cc1Br	16%	-0.7	8	-15%	-5	0.3%	-14%
CCOC(=O)CS(=O)(=O)c1nc(-c2ccccc2)cc(C(F)(F)F)n1	12%	2.9	-58	6%[15.4 µM]	-2	-7.9%	50µM*
C[C@@]12C(=O)Nc3ccc(Cl)cc3C(=O)N1[C@H]1c3cc(Cl)ccc3OC[C@@H]1[C@@H]2c1ccccc1	-12%	·	-8	2%	·	-21%	·
CC(=O)N1CCCN(C(=O)c2ccc3nc(Cc4ccccc4F)oc3c2)CC1	-18%	·	-13	-11%	16	-1.0%	6%
COc1cccc(NC(=S)N(CCN(C)C)C(C)c2cccnc2)c1 (stereo not given)	-6%[15.4 µM]	-3.7	1	2%	-2	·	15%
COc1ccc(S(=O)(=O)N2c3ccc(F)cc3CCC2C)cc1 (stereo not given)	-11%	·	-5	13%	·	0.3%	·
Cc1cccc(N(C(=O)CNC(=O)c2ccco2)C(C(=O)NC2CCCC2)c2ccncc2)c1C (stereo not given)	-2%[15.4 µM]	2.5	-8	6%	13	·	18%
Fc1ccc(NC(=S)Nc2cccc3ccccc23)cc1	17%	0.5	-23	-6%	0	4.5%	-23%
Cc1cc(C)cc(NC(=O)CN2CCc3cc4c(cc3C2C)OCCCO4)c1 (stereo not given)	0%	-5.2	-6	-13%	-10	-2.5%	-19%
O=C1/C(=C/Nc2cccc([N+](=O)[O-])c2)CCc2ccccc21	13%[15.4 µM]	5.4	-10	?	5	1.5%	?
COc1cc(-c2noc(CCCC(=O)NCc3ccccc3)n2)cc(OC)c1OC	8%	-1.3	-12	-20%	-13	-1.0%	-4%
O=c1[nH]c(=O)n(CCOc2ccc(Cl)cc2)cc1Br	-13%	-3.7	4	-11%	·	-2.4%	1%
O=C(COC(=O)c1ccc(Br)cc1)NCc1ccccc1	-2%	1.5	-11	7%	-28	1.5%	16%
COc1ccc(NC(=O)COc2coc(CN3CCCc4ccccc43)cc2=O)cc1	7%	·	-31	0%	0	0.7%	·
Cc1cc(C)nc(NC(=O)CSc2nn(-c3ccccc3)c(=S)s2)n1	?	2.2	-4	-17%	-8	·	-6%
CSc1nsc(SCC(=O)Nc2ccc(C(N)=O)cc2)n1	-4%[15.4 µM]	-2.5	2	10%	-13	·	-2%
CCOc1ccc2c(c1)C(N(CCN1CCOCC1)C(=S)Nc1ccccc1OC)CC(C)(C)O2 (stereo not given)	-5%	0.7	-14	-7%	26	-0.6%	-4%
S=C(NCC1CCCO1)N1CCN(c2cccc(Cl)c2)CC1 (stereo not given)	?	-4.4	-27	-9%	-10	-1.7%	6%
Cc1cccc(-c2c3c(=O)n(C)c(=O)n(C)c3c3cccnn23)c1	18%	-1.2	-2	0%	3	-2.7%	14%
Cc1ccc(SCC2(O)CCN(C(=O)c3ccc(Cl)cc3)CC2)cc1	10%	0.7	-19	-3%[15.4 µM]	4	-3.2%	7%
CC(/C=N/NC(=O)Cc1cc(=O)[nH][nH]1)=C\c1ccccc1	?	1.9	-10	-7%	-3	-1.0%	2%
CCS(=O)(=O)N1CCN(CC2CC3C=CC2C3)CC1 (stereo not given)	-8%	-6.5	-14	6%	?	1.0%	-16%
CSCCC(=O)N1CCC(n2nccc2NC(=O)c2ccc3c(c2)OCO3)CC1	-21%[15.4 µM]	·	-9	-8%	12	3.9%	21%
O=C(Nc1ccc([N+](=O)[O-])cc1)C1(c2ccccc2)CCOCC1	-5%	2.0	-12	-15%	7	?	-7%
Cc1cccc(Nc2nc(-c3ccncc3)cs2)c1	-3%	4.4	-8	-34%	-1	-1.6%	-4%

Bioassay records from PubChem BioAssay.
